High-throughput results from PubChem BioAssay.
VACV E9 pol inh: vaccinia E9 polymerase processive synthesis inhibitors, primary screen, biochemical, absorbance | AID 493162, 2011 | in vitro processive DNA synthesis, absorbance read-out; stronger effect = lower value; some inactives read as strong as hits | hit rate 0.94% among 46,000 | normalized absorbance, % (no concentration beside the values);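 active means replicate mean up to 90% and picked by the depositor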;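 further: 100% = median of the test wells of a plate; 100 nL library stock went into each well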
Numbers without * were called inactive.

SMILES | VACV E9 pol inh
Cc1c(C(=O)/C=C/N(C)C)nnn1-c1ccccc1 | 96
CN(C)CCNC(=O)C12CC3(C)CC(C)(CC(C)(C3)C1)C2 | 101
Cc1cc(N2CCN(c3ccccc3)CC2)n2nc(-c3ccccc3)cc2n1 | 100
O=C(CCC1CCCCC1)OCCN1CCCC1=O | 72
O=c1c2cc(NC(=S)N3CCCC3)ccc2nc2n1CCCCC2 | 90
CC1=CC(C)C(C2OCC(C)CO2)C(C)C1 (stereo not given) | 104
COc1ccc(C2OC(=O)CC2C(=O)NC2CCCC2)cc1OC (stereo not given) | 99
COc1ccc(-c2c(C)oc3cc(OC)ccc3c2=O)cc1 | 101
Cn1nc(-c2ccccc2F)c2cc(C(=O)NCCCN3CCN(c4ccc(F)cc4)CC3)sc21 | 98
Cc1sc2ncnc(Nc3ccc4c(c3)OCO4)c2c1C | 95
CCCNC(=O)c1nnc(Cc2ccc(OC)c(OC)c2)o1 | 101
CC(C)CCNC(=O)C1CCCN(S(C)(=O)=O)C1 (stereo not given) | 114
CCC(C(=O)N1CCCCC1)n1ncn2c(cc3occc32)c1=O (stereo not given) | 100
COc1cccc(C(=O)NN2C(=S)N(c3ccccc3)C(=O)C2CC(N)=O)c1 (stereo not given) | 100
CCN1C(=O)/C(=C/c2ccc(Cl)cc2)NC1=S | 101
O=c1c2cc3c(=O)n(-c4ccc(Cl)cc4)c(=O)c3cc2c(=O)n1-c1ccc(Cl)cc1 | 102
COc1ccc2c3c1OC1C(O)C=CC(C=C2)C31CCN(C)C (stereo not given) | 99
Cc1nn(-c2ccccc2)c2sc(C(=O)NC(=S)NC3CCSC3=O)cc12 (stereo not given) | 101
CN(Cc1ccccc1)c1sc(S(C)(=O)=O)nc1S(=O)(=O)c1ccc(Cl)cc1 | 100
CC1=Nc2ccccc2N(CC(O)Cn2c3ccccc3c3ccccc32)C(=O)C1 (stereo not given) | 100

Of the compounds above, these have a Cl atom.
SMILES | VACV E9 pol inh
CCN1C(=O)/C(=C/c2ccc(Cl)cc2)NC1=S | 101
O=c1c2cc3c(=O)n(-c4ccc(Cl)cc4)c(=O)c3cc2c(=O)n1-c1ccc(Cl)cc1 | 102
CN(Cc1ccccc1)c1sc(S(C)(=O)=O)nc1S(=O)(=O)c1ccc(Cl)cc1 | 100

(next part)
SMILES | VACV E9 pol inh
COC(=O)c1cccc(NC(=O)NC(C)C)c1 | 102
CCSc1nnc2nc3c4ccccc4c4ccccc4c3nn12 | 97
CN1CCN(CCN2C(=O)c3ccccc3Sc3cc(Cl)ccc3S2(=O)=O)CC1 | 102
Cc1nc2c(c(C)nn2C(C)(C)C)c(C)c1CCC(=O)NCCCc1ccccc1 | 70
CC(Sc1ncnc2sc3c(c12)CCCC3)C(=O)O (stereo not given) | 99
CN(C)S(=O)(=O)N1CCC(Cc2ccccc2)CC1 | 100
S=c1nc(-c2ccccc2)[nH]c2ccccc12 | 101
Cc1[nH]nc2c1C(c1cccs1)C1=C(CCCC1=O)N2 (stereo not given) | 97
CN(C)CCCN1c2ccccc2Sc2ccc(Cl)cc21 | 99
O=C(c1ccc2c(c1)OCO2)N1CCc2ccccc21 | 99
N#CCNC(=O)CN1C(=O)c2ccccc2C1=O | 94
O=C1CS(=O)(=O)CC(=O)N1Cc1ccc(Cl)c(Cl)c1 | 114
NS(=O)(=O)c1ccc(N=NN2CCCCCC2)cc1 | 100
CSc1nnc(/N=C/c2c(O)ccc3ccccc23)s1 | 88
O=C1CN(c2ccccc2)C(=O)N1 | 98
Cc1nc2sccn2c(=O)c1S(=O)(=O)N(C)C1CCCCC1 | 83
COc1ccc(C(=O)OCC(=O)N(C)C2CCCCC2)cc1 | 106
CCN(CC)c1ncnc2c1sc1nc(C)cc(C)c12 | 85
O=C(CN1C(=O)S/C(=C\C=C\c2ccccc2)C1=O)Nc1ccc(O)cc1 | 98
Cc1ccc2c(c1)=C(c1sc(=O)n(CC(=O)O)c1O)C(=O)N=2 | 84
CCOC(=O)N1CCN(CC(O)c2ccc3c(c2)CCN3)CC1 (stereo not given) | 104
CC(=O)Oc1ccc(OC(C)=O)c(S(=O)(=O)c2ccc(C)c(C)c2)c1 | 101
CCN(Cc1ccccc1)C(=O)C1CCN(Cc2ccc(C(F)(F)F)cc2)CC1 | 102
c1ccc(C2C3=C(CCCC3)SC3=C2CCCC3)cc1 | 100
COc1cc(/C=C/C(=O)NC(C)C2CC3CCC2C3)cc(OC)c1OC (stereo not given) | 84
COC(=O)/C(=C/c1ccccc1)c1ccccc1 | 102
CCOc1cc(CNc2ncn[nH]2)ccc1OCC(=O)NC(C)(C)C | 100
COc1cc(/C=C/C(=O)NCCSc2c[nH]c3ccccc23)cc(OC)c1OC | 102
O=C(/C=C/c1ccccc1)OCC(=O)N1CCc2ccccc2C1 | 102
CCOC(=O)c1nc(Nc2cccc(C)c2C)c2ccccc2n1 | 100
OC(CN1CCCCCC1)c1ccccc1 (stereo not given) | 101
COC(=O)CNC(=O)c1ccc(Cl)cc1 | 97
CSc1sc(C#N)c(C)c1C(=O)/C=C/N(C)C | 106
COc1cc2c(cc1OC)C(=O)N(Cc1ccc(F)cc1)CC2 | 104
Cc1cccc(C(=O)OCc2cncs2)c1 | 119
CCc1ccc2nc(N3CCC(C(=O)NCc4ccccc4)CC3)sc2c1 | 107
Cc1ccc(CC(=O)c2cccnc2)cc1 | 103
Cc1cc(C)n(C(=O)COc2ccccc2)n1 | 100
COc1ccc(-n2ccnc2)cc1 | 102
COC(=O)c1ccc(N=NN2CCCCCC2)cc1 | 100

Compounds shown so far that have fluorine (3):
SMILES | VACV E9 pol inh
Cn1nc(-c2ccccc2F)c2cc(C(=O)NCCCN3CCN(c4ccc(F)cc4)CC3)sc21 | 98
CCN(Cc1ccccc1)C(=O)C1CCN(Cc2ccc(C(F)(F)F)cc2)CC1 | 102
COc1cc2c(cc1OC)C(=O)N(Cc1ccc(F)cc1)CC2 | 104

(cont.)
SMILES | VACV E9 pol inh
CCCN1C(=O)/C(=C/c2ccc(F)cc2)SC1=S | 104
Cc1nc2sccn2c(=O)c1S(=O)(=O)N1CCc2ccccc21 | 93
CSc1nc(C)cc(OCCO)n1 | 101
Cc1ccc(C(=O)COC(=O)c2cnccn2)cc1C | 96
CSc1nc(-c2ccco2)nn1S(C)(=O)=O | 101
CCN(CC)C(=O)Oc1c(I)cc(Cl)c2cccnc12 | 97
N#CCCN(CC1CCCO1)C(=S)NC1CC2C=CC1C2 (stereo not given) | 89
Oc1ccc2ccccc2c1CNn1cnnc1 | 101
CN(C(=O)C(C)(C)C)c1nnc(C23CC4CC(CC(C4)C2)C3)s1 | 101
O=C(COc1ccc2c(c1)oc(=O)c1ccccc12)Nc1ccc(F)cc1 | 91
O=C(O)c1ccccc1C(=O)Nc1ccc2c(c1)OCCO2 | 100
Cc1ccc2nc(Cl)c3cc(C(=O)N(CCN(C)C)Cc4ccco4)sc3c2c1 | 53*
Cc1ccc(C2OCC3(CO2)COC(c2ccc(C)cc2)OC3)cc1 (stereo not given) | 100
CCN(CC)C(=O)Cn1c(S(=O)(=O)Cc2ccccc2)nc2ccccc21 | 111
CN(C)CCC=C1c2ccccc2C=Cc2ccccc21 | 97
O=C(c1ccc(F)cc1)N1c2ccccc2C=Cc2ccccc21 | 94
O=C(O)CCC(=O)NCc1ccc2[nH]c3c(c2c1)CCCC3 | 101
CSCCC(C(=O)O)n1c(O)c(/C=C2\C=Nc3ccccc32)sc1=S (stereo not given) | 78*
C=CCn1nc2sc3ccccc3n2c(=O)c1=O | 106
CN(C)S(=O)(=O)Nc1cccc(N)c1 | 97
Cc1ccc(C(=O)OCC(=O)N2CCC(Cc3ccccc3)CC2)cc1N | 102
NC(=O)COC(=O)c1ccc(F)cc1Cl | 102
CC1CN(C(=O)CCC(=O)N2CCN(c3ccccn3)CC2)c2ccccc2O1 (stereo not given) | 102
O=C(CN1C(=O)S/C(=C\C=C\c2ccccc2)C1=O)Nc1cccc(O)c1 | 100
COc1ccccc1N1CCN(C(=O)CCCC(=O)O)CC1 | 100
COc1ccccc1-c1coc2c(CN(C)C3CCCCC3)c(O)ccc2c1=O | 106
Cc1nc2ccc(C(F)(F)F)cc2n1CCc1ccccc1 | 98
COC(=O)C1=C(C)N2[C@@H](C=C1)[C@@](C#N)(C(N)=O)[C@@H](c1ccccc1)[C@@H]2C(=O)OC | 100
CCc1ccnc(NC(=O)CC2(CC(=O)O)CCCCC2)c1 | 97
Nc1nnnn1/N=C1/C(=O)Nc2ccc(Br)cc21 | 99
Cc1sc(/N=C\c2ccccc2Cl)c(C#N)c1C | 86
CCSc1nc(-c2ccccc2)nc2c1CCCC2 | 100
Cc1nc(C(F)(F)F)ccc1C(=O)NCC(O)c1ccccc1 (stereo not given) | 99
Cn1cc(C(=O)NCCc2ccccc2)c(=O)c2cc(S(=O)(=O)N3CCCC3)ccc21 | 103
CC(=O)N1CCc2c(sc(NC(=O)/C=C/c3ccccc3)c2C#N)C1 | 80
S=c1sc2ccccc2n1CCn1c(=S)sc2ccccc21 | 109
O=C(Cn1c(-c2ccccc2)c[n+]2ccsc12)c1ccccc1 | 100
Cc1nn(-c2ccccc2)c2sc(C(=O)c3nccn3C)cc12 | 98
c1ccc(CCn2cnc3ccccc32)cc1 | 102
COc1ccc(-c2ncnc(C(F)(F)F)c2-c2cscn2)c(O)c1 | 101
O=C(COCC(=O)N1CCc2ccccc2C1)N1CCc2ccccc2C1 | 106
N#Cc1c(-c2ccc(Cl)cc2)cc[nH]c1=O | 111
O=C1C2CC=CCC2C(=O)N1Cc1ccccc1 (stereo not given) | 102
CC(=O)N(CN1C(=O)c2ccccc2C1=O)c1ccccc1C | 100
O=C(Nc1nc(-c2ccccc2)cs1)C1=COCCO1 | 99
CCOC(=O)c1sc(-c2ccc(C)cc2)c(C#N)c1C | 100
Nc1nc(-c2ccncc2)ncc1S(=O)(=O)Cc1ccco1 | 92
Cc1ccc(-c2csc(NC(=O)/C=C/c3ccco3)c2C(=O)O)cc1 | 100
Cn1cccc1Cc1nnc(SCC(=O)N2CCCCC2)n1CCc1ccccc1 | 100
S=c1[nH]nc(CSCc2cccc3ccccc23)n1C1CCCCC1 | 98
CC(C)NC(=O)C1CC(c2ccc(F)cc2)=NO1 (stereo not given) | 89
O=C1c2ccccc2C(=O)N1CCC(=O)N(C1CCCCC1)C1CCCCC1 | 100
COc1cccc(CC(=O)Nn2c(C)nc3ccccc3c2=O)c1 | 100
CCc1ccc(-c2csc3ncn(CC(N)=O)c(=O)c23)cc1 | 98
Cc1c(Cl)cc(F)cc1S(=O)(=O)N1CC=C(c2ccccc2)CC1 | 112
O=C(Nc1ccccc1C(=O)N1CCOCC1)c1ccccc1 | 93
N#Cc1c(-c2cccs2)cc(C2CC2)nc1SCC(N)=O | 101
COc1ccccc1CCn1cc(C#N)c(=O)[nH]c1=O | 104
CC(=O)Nc1ccc(NC(=O)[C@@H]2CCCC[C@@H]2C(=O)O)cc1 | 100
COc1cc(OC)cc(C(=O)NCCc2cc3ccc(C)c(C)c3[nH]c2=O)c1 | 102
COc1ccc2cc(C(=O)Nc3ccccc3)sc(=O)c2c1OC | 91
O=C(NCC1CCCO1)c1csc2c1CCCC2 (stereo not given) | 96

Reformatted in CSV form: part of the list above
SMILES,VACV E9 pol inh
O=C(NCC1CCCO1)c1csc2c1CCCC2 (stereo not given),96
O=C(Nc1ccccc1C(=O)N1CCOCC1)c1ccccc1,93
CCc1ccc(-c2csc3ncn(CC(N)=O)c(=O)c23)cc1,98
CC(=O)Nc1ccc(NC(=O)[C@@H]2CCCC[C@@H]2C(=O)O)cc1,100

Nothing new here: entries from further up.
SMILES | VACV E9 pol inh
O=C1C2CC=CCC2C(=O)N1Cc1ccccc1 (stereo not given) | 102
CC(=O)N(CN1C(=O)c2ccccc2C1=O)c1ccccc1C | 100
O=C(Nc1nc(-c2ccccc2)cs1)C1=COCCO1 | 99
CCOC(=O)c1sc(-c2ccc(C)cc2)c(C#N)c1C | 100
Nc1nc(-c2ccncc2)ncc1S(=O)(=O)Cc1ccco1 | 92
Cc1ccc(-c2csc(NC(=O)/C=C/c3ccco3)c2C(=O)O)cc1 | 100
Cn1cccc1Cc1nnc(SCC(=O)N2CCCCC2)n1CCc1ccccc1 | 100
S=c1[nH]nc(CSCc2cccc3ccccc23)n1C1CCCCC1 | 98

Only part of the results is shown; count on the stated rates, not on these rows.
